Compound activity from PubChem.
VDR inh: inhibitors of human vitamin D receptor; VDR-SRC2-3 peptide fluorescence polarization, 2 h; Potency, µM, without a hit: max response, negative = inhibition, actives largely listed as inhibitors; 0.93% of 400,000 active; active = well fitted inhibition curve with a large enough effect; inconclusive = small, poorly fitted or top-dose-only effect, or another doubt; inactive = no such curve, though single readings can be large or run the other way; also: series mostly up to about 120 µM
Target sequence (P11473 whole entry, looked up): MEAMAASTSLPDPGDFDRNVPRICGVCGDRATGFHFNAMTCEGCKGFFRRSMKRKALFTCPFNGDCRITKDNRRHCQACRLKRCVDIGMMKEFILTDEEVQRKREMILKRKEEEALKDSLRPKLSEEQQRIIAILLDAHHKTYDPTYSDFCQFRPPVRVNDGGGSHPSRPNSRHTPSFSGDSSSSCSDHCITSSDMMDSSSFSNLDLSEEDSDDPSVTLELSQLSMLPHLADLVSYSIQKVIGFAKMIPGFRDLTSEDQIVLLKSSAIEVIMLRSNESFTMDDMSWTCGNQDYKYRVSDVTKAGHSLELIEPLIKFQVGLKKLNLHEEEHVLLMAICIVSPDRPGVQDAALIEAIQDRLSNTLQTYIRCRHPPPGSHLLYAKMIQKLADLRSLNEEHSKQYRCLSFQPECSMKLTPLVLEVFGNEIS
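Two reagent solutions held at 4 deg C in the dark were dispensed, compounds pinned at 23 nl, and the mixture incubated 2 h at room temperature. Read-out: fluorescence polarization of VDR–SRC2-3 peptide binding.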
* hit, by the source's call; ? = inconclusive; & = joins results of further samples; [ ] = another dose, or the depositor's remark. % is scaled to controls: 0 for no effect and ±100 for the full control effect; potency is read from the fitted curve at half-maximal effect.

SMILES	VDR inh
CC(=O)c1cccc(Nc2ncnc3c2cnn3C)c1	7.7%
C#CCNCCS(=O)(=O)N(Cc1ccc(Br)cc1)[C@@H](CC(C)C)C(=O)O	?
Cc1cc(S(=O)(=O)N2CCN(C(=O)c3ccco3)CC2)ccc1F	-6.5%
CC(=O)Nc1cccc(NC(=O)C(=O)c2cn(CC(=O)N3CCCCC3)c3ccccc23)c1	2.2%
COc1cc(NC(=O)c2ccccc2)c(OC)cc1NC(=O)Cc1ccc(F)cc1	-6.2%
CCNC(=O)NC(=O)CSc1ccc(S(=O)(=O)N2CCCCC2)cn1	0.5%
COc1ccccc1CNc1cc(-c2ccccc2C(F)(F)F)ncn1	-20.5%
O=C(Nc1c2c(nn1-c1ccc(F)cc1)CS(=O)(=O)C2)C1CCCC1	-11.9%
O=C(Nc1ccc(Cl)c(Cl)c1)OCc1cccnc1	-3.4%
CC(=O)C1C(c2cn(-c3ccccc3)nc2-c2cccs2)NC(=O)NC1(O)C(F)(F)F (stereo not drawn)	-9.6%
CC1(C)S[C@@H]2[C@H](NC(=O)[C@@H](NC(=O)N3CCNC3=O)c3ccccc3)C(=O)N2[C@H]1C(=O)O	-0.9%
COc1cccc(-c2ccc3c(c2)C2CC3CCN2C(=O)c2ccc(Cl)cc2)c1 (stereo not drawn)	0.6%
CCOc1ccc(C(C)=O)cc1COc1ccc(-c2nnco2)cc1	4.3%
CC1Cc2ccccc2N1C(=O)CN1CCCCC1 (stereo not drawn)	2.2%
O=C(N/N=C/c1cn(-c2ccccc2)nc1-c1cccs1)c1ccccc1F	15.9%

Look-ups from the entries so far:
`CC1Cc2ccccc2N1C(=O)CN1CCCCC1` (stereo not drawn) – VDR inh: 2.2%
`CC(=O)Nc1cccc(NC(=O)C(=O)c2cn(CC(=O)N3CCCCC3)c3ccccc23)c1` – VDR inh: 2.2%
`Cc1cc(S(=O)(=O)N2CCN(C(=O)c3ccco3)CC2)ccc1F` – VDR inh: -6.5%
`CCOc1ccc(C(C)=O)cc1COc1ccc(-c2nnco2)cc1` – VDR inh: 4.3%
`CC(=O)c1cccc(Nc2ncnc3c2cnn3C)c1` – VDR inh: 7.7%
`CC(=O)C1C(c2cn(-c3ccccc3)nc2-c2cccs2)NC(=O)NC1(O)C(F)(F)F` (stereo not drawn) – VDR inh: -9.6%

More compounds
SMILES	VDR inh
N/C(=N\S(=O)(=O)c1cc(C(F)(F)F)cc(C(F)(F)F)c1)c1ccccc1	0.6%
O=C(CSc1nnc(C2CC2)n1C1CC1)c1ccc(Br)s1	-22.8%
Nc1c(NC=O)c(=O)n(Cc2ccccc2)c(=O)n1Cc1ccccc1	-4.3%
O=C1/C(=C/c2ccc([N+](=O)[O-])cc2)CCC1C1CCCC1 (stereo not drawn)	25.0%
COc1ccc(C(=O)c2ccc(C)cc2)c(OC)c1OC	-15.4%
Cc1c(NC(=O)c2cc(=O)c3ccccc3o2)c(=O)n(-c2ccccc2)n1C	0.7%
Cc1c(C(=O)N2CCC[C@H]2CO)oc2c(F)cccc12	23.8%
CCc1ccc(N(C(=O)Cn2nnc(-c3ccccc3)n2)C(C(=O)NC2CCCCC2)c2ccccn2)cc1 (stereo not drawn)	-4.2%
CCOC(=O)N1CCN(C(=O)CN(c2ccccc2)S(C)(=O)=O)CC1	13.6%
Cc1ccc(NC(=O)CCl)cc1S(=O)(=O)N1CCCCCC1	-20.8%
O=C(CSc1ccc(-c2ccc(F)cc2)nn1)N1CCCc2ccccc21	10.9%
COc1ccc(NC(=S)NC(=O)c2cncc(Br)c2)cc1	4.4%
COc1cccc(/C=N/NC(=O)CNC(=O)c2ccco2)c1O	-4.5%
COc1ccc(C(=O)C2CCCN(C(=O)c3cc(C)on3)C2)cc1F (stereo not drawn)	-1.0%
CCc1ccc(CN2CCC(n3nccc3NC(=O)c3ccccc3Cl)CC2)cc1	-23.3%
O=S(=O)(Nc1cccc(Cl)c1)c1ccc(-n2cccn2)cc1	-2.3%
O=C(Nc1ccccc1C(=O)N1CCCC1)c1cccc(S(=O)(=O)N2CCCCC2)c1	-7.7%
CCOC(=O)C1CCN(S(=O)(=O)c2ccc(C(C)=O)cc2)CC1	-9.5%
O=C(CSc1nnc(-c2ccc3c(c2)OCO3)n1-c1ccccc1)c1ccc(Cl)cc1	-10.9%
FC(F)(F)c1ccc(CN2CCN(Cc3ccco3)CC2)cc1	-10.3%
CS(=O)(=O)c1ccc(C(=O)OC2CCOC2=O)cc1[N+](=O)[O-] (stereo not drawn)	-17.4%
CCCCn1c(N)c(N(CC(C)C)C(=O)CN2C(=O)c3ccccc3C2=O)c(=O)[nH]c1=O	-5.1%
CCOCCCn1c(SCC(=O)Nc2ccccc2CC)nc2ccccc2c1=O	-3.5%
COC(=O)c1ccccc1NC(=O)c1ccc(COc2cccc3ccccc23)o1	-5.9%
Cn1cccc1C(=O)c1ccc(Cl)cc1Cl	-1.9%
CN(C)Cc1ccccc1-c1nc(NC2CC2)c2ccccc2n1	-1.0%
COC(=O)CN1C(=O)C(C)(C)Oc2ccc(C(=O)Nc3ccccc3F)cc21	16.4%
COc1ccccc1NC(=S)N1CCCCCC1	-3.6%
COc1ccc2c(c1)OC[C@H]1[C@H]2N2C(=O)CN(CC3CCCO3)C(=O)[C@@]2(C)[C@H]1c1ccccc1 (stereo partly drawn)	0.8%
c1ccc(CN(CCN(Cc2ccccn2)Cc2ccccn2)Cc2ccccn2)nc1	5.1%
O=c1cc(COc2ccccc2Cl)nc2scc(-c3ccccc3)n12	-4.0%
O=C(O)/C=C\c1cc2c(cc1[N+](=O)[O-])OCO2	7.8%
Cc1ccc(-c2csc(N3C(=N)SCC3=O)n2)cc1	12.8%
O=C(Cn1c(=O)n(-c2ccccc2)c(=O)c2c3c(sc21)CCC3)c1ccc(F)cc1	-0.3%
COC(=O)C1=C(C)NC2=C(C(=O)CC(C)(C)C2)C1c1cnn(C)c1C (stereo not drawn)	-20.4%
C=CCC[C@@H](Cc1ccc(F)cc1)C(=O)OC[C@@H]1CCCN1C(=O)[C@@H](CC=C)CC(=O)N(CCO)Cc1ccccc1	-11.1%
Cc1nc(SCC(=O)c2ccc(F)cc2)n[nH]1	70.8µM*
O=c1c2oc3ccccc3c2n(Cc2cccc(Cl)c2)c(=O)n1Cc1ccco1	4.2%
Cc1ccc(C)c(NC(=O)Cn2nc(C)c3ccccc3c2=O)c1	0.6%
COc1ccc(N=C2S/C(=C\c3cccs3)C(=O)N2CC(C)C)cc1	-12.7%
CCOc1ccc(-c2nn(CC(=O)NC3CCCC3)c3c2cnc2ccc(C)cc23)cc1	-4.0%
COc1ccc(S(=O)(=O)N(CC(=O)O)c2ccccc2)cc1	16.1%
CC(=O)c1sc2c(c1OC(=O)c1ccc(Cl)cc1Cl)c(=O)n(-c1ccccc1)c(=S)n2-c1ccccc1	-15.6%
O=C1c2ccccc2C(=O)N1c1cccc2ccccc12	-14.4%
CC1CC(C)CN(C(=O)COC(=O)c2ccc([N+](=O)[O-])o2)C1 (stereo not drawn)	4.3%
Cc1ccn2c(NCc3ccc4c(c3)OCO4)c(-c3ccc(O)cc3)nc2c1	-2.6%
COc1ccc(CCCCCCOCc2ccccc2)cc1	-0.5%
Cc1ccc(NC(=O)CN2C(=O)c3ccccc3Sc3ccc(C(=O)N4CCOCC4)cc32)cc1C	-1.1%
CC(=O)c1c(OC(=O)c2ccco2)c2ccccc2n1C	0.7%
Cc1cccc(C)c1OCC(=O)NCc1nnc(SCC(=O)NC2CCCCC2)n1C	11.5%
COc1ccccc1C(CNC(=O)c1ccc(NS(=O)(=O)c2ccc(F)c(C)c2)cc1)N(C)C (stereo not drawn)	6.5%
O=C(O)CNC(=O)CC12CC3CC(CC(C3)C1)C2	2.8%
NNC(=O)Cc1csc(-c2ccccc2)n1	-13.7%
COc1ccc(CC(=O)Nc2ccc(S(=O)(=O)N3CCCCC3)cc2)cc1OC	1.6%
Cc1nc(-c2ccccc2)sc1C1(C)CC(c2cccc(F)c2)=NO1 (stereo not drawn)	7.0%
Cc1ccc(S(=O)(=O)NCC(=O)N2CCCCC2)cc1	-2.3%
Cc1[nH]n(-c2ccccc2)c(=O)c1C(c1cccc([N+](=O)[O-])c1)c1c(C)[nH]n(-c2ccccc2)c1=O	56.2µM*
COc1ccc(CNCc2ccc([N+](=O)[O-])cc2)cc1OC	-3.0%
C=CCN(C(C(=O)OC)C(C)C)S(=O)(=O)CCNCc1ccccc1 (stereo not drawn)	-3.9%
O=C(O)c1ccc2c(=O)n3c(nc2c1)/C(=C/c1cccc(O)c1)CC3	-15.3%

Entries above marked active in VDR inh.
SMILES	VDR inh
Cc1nc(SCC(=O)c2ccc(F)cc2)n[nH]1	70.8µM*
Cc1[nH]n(-c2ccccc2)c(=O)c1C(c1cccc([N+](=O)[O-])c1)c1c(C)[nH]n(-c2ccccc2)c1=O	56.2µM*

Remaining list, next part
SMILES	VDR inh
O=C(NCc1cccnc1)/C(=C\c1ccc(-c2ccc(Cl)c(Cl)c2)o1)S(=O)(=O)c1ccccc1	39.8µM*
O=c1c2ccccc2[nH]c(=S)n1Cc1cccs1	-10.4%
Cc1ccc(S(=O)(=O)n2nccc2-c2c(-c3ccc(Cl)cc3)noc2C)cc1	16.6%
COc1ccc(S(=O)(=O)N2CCCC2CNC(=O)C(=O)Nc2ccc(C)cc2)cc1 (stereo not drawn)	-0.8%
COC(=O)[C@@]1(Cc2ccc(F)cc2)[C@H]2c3cc(C(=O)N4CCCC4)n(CCO)c3C[C@H]2CN1C(=O)c1ccccc1	-7.7%
Cc1ccc(Cn2c(CNC(=O)Cc3cccc([N+](=O)[O-])c3)nc3cccnc32)cc1	1.2%
O=C(CCCc1nc(-c2ccccc2Cl)no1)NC1CCCCC1	5.7%
CCOC(=O)C1CC(=O)c2ccccc2C1c1ccccc1 (stereo not drawn)	1.7%
O=C(Cn1nnc(-c2cccc(C(F)(F)F)c2)n1)N1CCOCC1	7.3%
COc1ccc(CNC(=O)CN(C(=O)c2csnn2)c2ccc3c(c2)OCCO3)cc1	-6.0%
COc1cc(C(=O)Nc2ccc3nc4n(c(=O)c3c2)CCCCC4)cc(OC)c1OC	-1.1%&9.1%
CCN(C(=O)CSc1ncn[nH]1)C1CCCCC1	1.4%
CCn1cnc2c(Nc3cc(F)cc(F)c3)nc(C#N)nc21	-14.5%
C(=C\c1ccccc1)/C=N/N1CCN(Cc2ccccc2)CC1	7.2%
O=C(COc1ccc(/C=N/NC(=O)CSCc2ccc([N+](=O)[O-])cc2)cc1)NCc1ccco1	-20.4%

Three compounds already listed, arranged by the value under VDR inh, descending:
Compound	VDR inh
Cc1nc(SCC(=O)c2ccc(F)cc2)n[nH]1	70.8µM*
Cc1[nH]n(-c2ccccc2)c(=O)c1C(c1cccc([N+](=O)[O-])c1)c1c(C)[nH]n(-c2ccccc2)c1=O	56.2µM*
O=C(NCc1cccnc1)/C(=C\c1ccc(-c2ccc(Cl)c(Cl)c2)o1)S(=O)(=O)c1ccccc1	39.8µM*

Back to the main list, repeating the seven entries before the break.
SMILES	VDR inh
O=C(Cn1nnc(-c2cccc(C(F)(F)F)c2)n1)N1CCOCC1	7.3%
COc1ccc(CNC(=O)CN(C(=O)c2csnn2)c2ccc3c(c2)OCCO3)cc1	-6.0%
COc1cc(C(=O)Nc2ccc3nc4n(c(=O)c3c2)CCCCC4)cc(OC)c1OC	-1.1%&9.1%
CCN(C(=O)CSc1ncn[nH]1)C1CCCCC1	1.4%
CCn1cnc2c(Nc3cc(F)cc(F)c3)nc(C#N)nc21	-14.5%
C(=C\c1ccccc1)/C=N/N1CCN(Cc2ccccc2)CC1	7.2%
O=C(COc1ccc(/C=N/NC(=O)CSCc2ccc([N+](=O)[O-])cc2)cc1)NCc1ccco1	-20.4%
CCCS(=O)(=O)N1CCN(C(=O)c2cccs2)CC1	13.9%
O=C(c1ccc(F)cc1)N1CCN(C2CCCCC2)CC1	2.9%
Cc1ccccc1Nc1nc(N)nc(CSc2nc3ccccc3s2)n1	6.1%
O=C(O)CN1CCCC1=Nc1ccccc1	-0.9%
COc1ccc(-c2cn(-c3ccc(C)cc3)c(S(=O)(=O)CC(=O)Nc3ccccc3)n2)cc1	7.4%
CC(C)COP(=O)(c1ccc(N(C)C)cc1)C(O)c1ccc(Br)cc1 (stereo not drawn)	5.9%
CCOC(=O)c1c(CSc2ccccc2)n(C)c2ccc(O)c(CN3CCN(C)CC3)c12	-4.5%
COc1ccc(CCNC(=O)COc2ccc(C)nc2[N+](=O)[O-])cc1OC	5.9%
Cc1nn(C)c(C)c1NC(=O)c1ccnn1C	9.1%
Cc1ccccc1Nc1c(-c2ccccc2)nc2cccc(C)n12	12.3%&-28.6%
Cc1ccc(-c2nc3ccccc3[nH]2)cc1NC(=O)COc1cccc(C)c1C	43.6%[activator]
CN(C)C(=O)Cn1cc(S(=O)(=O)Cc2ccccc2)c2ccccc21	8.0%
O=C(N/N=C/c1ccco1)c1ccc(N2CCCC2=O)cc1	4.3%
CC(C)(C)NS(=O)(=O)c1ccc(CCC(=O)NCc2cccnc2)cc1	9.7%

Some of the compounds tested, so the mix of outcomes need not match the whole.
